# Screening results: PubChem BioAssay, National Center for Advancing Translational Sciences (NCATS)
# Menin MLL FP FL – inhibitors of human menin-MLL interaction, wild-type MLL peptide. Fluorescence polarization, fluorescein-MLL peptide displacement from menin. FP activity change, % at 61.4 µM. 290,000 tested, under 10 active. AID 1766; inconclusive = falling polarisation curve, or a change in total fluorescence; inactive = total fluorescence flat and polarisation flat or rising; no compound was filed as active; the % refers to the polarisation; negative = inhibition;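 note: % of control where 0% means no effect; inhibitors lower the polarisation; unlabelled MLL peptide was the positive control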
# TRPML1 blocker – inhibitors of human TRPML1 channel; Q9GZU1; TRPML1-inducible cells, Ca2+ dye fluorescence, FDSS; active compounds read low; inhibition of EC80 agonist-evoked calcium signal; activity change, negative = inhibition, % (test concentration not listed); 0.02% of 390,000 active; AID 624415; in the data active means activity change below about -50%; inconclusive means about -30% to -50%; inactive means above about -30%;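 note: stimulus is agonist 54-4 at its EC80 concentration; % is set by controls: 0 for no effect and ±100 for the full control effect; compound concentration not given in the record; the text of the record puts the active cut at -80%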
# Target sequence (Q9GZU1 whole entry, looked up): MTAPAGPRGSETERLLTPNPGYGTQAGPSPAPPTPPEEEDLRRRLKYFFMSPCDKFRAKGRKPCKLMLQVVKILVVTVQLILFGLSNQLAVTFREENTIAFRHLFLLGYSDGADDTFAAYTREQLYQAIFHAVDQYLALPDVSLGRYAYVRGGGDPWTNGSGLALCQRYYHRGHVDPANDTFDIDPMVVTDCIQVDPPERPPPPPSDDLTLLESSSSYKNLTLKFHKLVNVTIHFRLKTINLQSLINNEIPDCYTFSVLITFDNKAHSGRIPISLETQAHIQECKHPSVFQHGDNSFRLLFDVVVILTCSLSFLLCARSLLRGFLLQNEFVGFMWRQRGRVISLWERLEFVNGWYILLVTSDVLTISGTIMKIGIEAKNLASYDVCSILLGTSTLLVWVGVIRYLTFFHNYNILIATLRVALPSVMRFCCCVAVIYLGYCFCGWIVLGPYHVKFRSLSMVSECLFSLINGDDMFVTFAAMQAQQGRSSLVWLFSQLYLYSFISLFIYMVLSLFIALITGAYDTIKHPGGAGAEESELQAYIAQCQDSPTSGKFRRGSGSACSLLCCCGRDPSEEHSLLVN
#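 Calcium fluorescence in TRPML1-DL cells induced overnight with Tet: a 110 s read after compound pin addition, then a 110 s antagonist read after challenge with 54-4 at 4 uM final (EC80).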
# ClpP mod – qHTS Assay for Activators of ClpP. 1.9% of 340,000 active. purified B. subtilis ClpP, FRET peptide cleavage, 20 min. Potency, µM (top dose mostly 57.5 µM), inactives show at the top dose activity change, negative = active. ATP-dependent Clp protease proteolytic subunit (Bacillus subtilis (strain 168)), P80244; active = well fitted falling curve with a large enough effect; inconclusive = small, poorly fitted or top-dose-only effect; inactive = no such curve, though single readings can be large or run the other way; note: potency is the fitted concentration of half-maximal effect; the source files actives as falling curves though it sought activators and does not explain the sign; nearly all actives have a fitted effect of over 65% in size; many hits overshoot -100%
# Target sequence (P80244 whole entry, looked up): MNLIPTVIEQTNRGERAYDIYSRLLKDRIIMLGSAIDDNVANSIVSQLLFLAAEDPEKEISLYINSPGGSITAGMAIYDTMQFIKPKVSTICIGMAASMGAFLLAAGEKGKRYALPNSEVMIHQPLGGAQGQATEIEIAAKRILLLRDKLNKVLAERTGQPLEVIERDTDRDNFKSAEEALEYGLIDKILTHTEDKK
#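 FRET quenching reversal measured ClpP activation: 10 microg/mL B. subtilis ClpP at pH 8 with the FRET-FV decapeptide, read at 430 nm after 320 nm excitation. The 20-min minus 0-min signal was scaled between DMSO/no-enzyme wells and ADEP (5.8 microM final).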
# TRPML1 agonist – agonists of human TRPML1 channel; Q9GZU1; 0.12% of 410,000 active; TRPML1-expressing cells, Ca2+ dye fluorescence, FDSS; host cell line not named in the record; reference of the full effect not given here; activation, % (concentration not given with the values); in the data active = activation above about 50%; inconclusive = about 30% to 50%; inactive = below about 30%; note: 0% is about no effect; the text of the record puts the active cut at 80%
#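 Calcium fluorescence on an FDSS kinetic reader gave the read-out. Tet-induced TRPML1-DL cells were plated overnight, dye-loaded (Ca8 with quencher, 45-90 min, room temperature, dark), then read 110 s after compound addition, and again 110 s after 4uM final 54-4 (EC80).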
# Sfp PPTase inh – inhibitors of Bacillus subtilis Sfp phosphopantetheinyl transferase. Q9F4F7. Biochemical Sfp PPTase activity, qHTS. Potency, µM, inactives show max response, negative = inhibition, most hits filed as inhibitors. 3.5% of 310,000 active. AID 1490; active = well fitted inhibition curve with a large enough effect; inconclusive = small, poorly fitted or top-dose-only effect, or another doubt; inactive = no such curve, though single readings can be large or run the other way;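 note: the enzyme is Sfp with the accession as filed and its product quenches rhodamine fluorescence; potency is the fitted concentration of half-maximal effect; 0% = enzyme reaction without inhibitor and -100% = no enzyme wells; top concentration of the series not given in the record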
#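 Compounds were incubated with enzyme (final 15 nM) for 15 min at room temperature before substrate addition started the reaction. Fluorescence at 525 nm excitation, 598 nm emission was recorded immediately and after 30 minutes.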
# TRPV1 potentiator – potentiators of human vanilloid receptor 1 (TRPV1) | TRPV1-expressing cells, Fluo-8 calcium influx, capsaicin EC20 potentiation; host cell line not named in the record; control for the full effect not named in the record | potentiation, % at 8.33 µM | 0.02% of 320,000 active | AID 540277; active means potentiation above 80%; inconclusive means 30% to 80%; inactive means below 30%; note: 0% is about no effect
#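 Fluo-8 calcium influx in TRPV1-expressing cells, kinetic read (ex 480/em 520 nm). Compound added and read 3 min for agonist activity, followed by capsaicin at EC20 final and 2 min further read for enhancement.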
# PINK1 expr mod – changes PINK1 expression | 0.2% of 410,000 active | Potency, µM (top dose mostly 76.6 µM), inactives show at the top dose activation (PINK1 increase), usual class: activators | PINK1 immunofluorescence, high-content cytometry, 24 h; active = well fitted activation curve with a large enough effect; inconclusive = small, poorly fitted or top-dose-only effect; inactive = flat fitted curve, though single readings scatter; cell line not stated here;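 note: potency is the fitted concentration of half-maximal effect; % of control where 0% means no effect; nearly all actives have a fitted effect of over 65% in size; a mitochondrial uncoupler was the plate control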
#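 Readout is PINK1 immunofluorescence, quantified alongside mitochondrial, cell and nuclear markers by laser-scanning microplate cytometry. Cells from a stable line were exposed to compound titrations (5 concentrations) for 24 hours, with CCCP controls.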
# An asterisk follows results filed as active; ? = inconclusive; . = not tested or not shown; [ ] = another dose, or the depositor's remark.
# The first 2 compounds as a preview:
SMILES,Menin MLL FP FL,TRPML1 blocker,ClpP mod,TRPML1 agonist,Sfp PPTase inh,TRPV1 potentiator,PINK1 expr mod
O=C(NCC1OCCc2ccccc21)c1ccc(NC(=O)c2ccc(Cl)cc2Cl)cc1 (configuration not stated),3.3,56,-12%,-1.2,10%,-1,2.1%
CCC(=O)C1=C(c2ccc(F)cc2)N(C(=O)CC)n2c(nnc2-c2ccc(OC)cc2)S1,.,-23,0.4%,1.0,.,.,0.1%

# Results, previewed entries included:
SMILES,Menin MLL FP FL,TRPML1 blocker,ClpP mod,TRPML1 agonist,Sfp PPTase inh,TRPV1 potentiator,PINK1 expr mod
O=C(NCC1OCCc2ccccc21)c1ccc(NC(=O)c2ccc(Cl)cc2Cl)cc1 (configuration not stated),3.3,56,-12%,-1.2,10%,-1,2.1%
CCC(=O)C1=C(c2ccc(F)cc2)N(C(=O)CC)n2c(nnc2-c2ccc(OC)cc2)S1,.,-23,0.4%,1.0,.,.,0.1%
Cc1[nH]c2ccccc2c1C(=O)COc1ccccc1F,1.8,-12,.,-0.7,?,13,6.3%
COc1cccc(C2C(C#N)=C(N)N(N(C)C)C3=C2C(=O)CC(C)(C)C3)c1OC (configuration not stated),-2.5,-3,2.1%,1.0,6%,-4,-1.4%
CCOC(=O)Cc1csc(NC(=O)/C=C/c2ccc(Cl)cc2)n1,-0.8,12,-6.9%,1.5,11%,-7,7.0%
Cc1cc(NC(=O)CN2CCCCC2)no1,-0.1,1,.,0.1,-10%,-1,-0.5%
COc1cc(C(C#N)N2CCOCC2)ccc1O (configuration not stated),-2.6,-12,-0.9%,0.4,-20%,-4,-2.1%
CCOC(=O)c1cc(NC(=O)NCc2ccco2)c(C)nc1C,4.4,-3,-24%,-0.7,8%,-5,1.5%
CC1CCN(C(=O)CN(c2ccc(Oc3ccccc3)cc2)S(C)(=O)=O)CC1,2.1,13,-0.4%,1.4,6%,-21,-1.5%
Cc1ccc(N2CC(C(=O)OCC(=O)Nc3ccc(Cl)cc3)CC2=O)cc1 (configuration not stated),.,-2,1.5%,1.6,.,4,-1.4%
CC(=O)COc1ccc2oc(=O)cc(-c3cc4ccccc4o3)c2c1,.,28,-0.9%,0.1,-13%,-11,-0.2%
CCOC(=O)c1c(NC(=O)C(C)Oc2ccccc2F)sc(C(C)=O)c1C (configuration not stated),.,-21,-0.6%,-0.9,.,.,1.0%
Cc1ccc(NC(=O)c2ncn(CC(=O)NCc3ccc4c(c3)OCO4)n2)cc1C,.,-7,-11%,1.0,.,.,-0.2%
CCCCn1c(=O)c(CCC(=O)OCC(=O)NCc2ccc(OC)c(OC)c2)nc2ccccc21,0.0,7,-4.9%,-0.7,-6%,-22,0.1%
COc1ccc(Cl)cc1C(=O)NCC(=O)OCc1ccccc1,.,5,.,-1.1,.,-8,1.7%
Cc1ccc(Cn2c(O)c(N=O)c3ccccc32)cc1,-1.1,6,.,-0.4,-18%,0,3.3%
O=C(CN1C(=O)NC2(CCCCC2)C1=O)Nc1ccccc1N1CCCC1,.,11,0.6%,-0.6,.,-2,0.8%
O=C(NC1CCCC1)C1CCN(c2nccs2)CC1,-1.0,3,1.4%,-0.4,4%,20,-3.1%
COC(=O)c1cc(NS(=O)(=O)c2ccc(NCc3cccnc3)c(N)c2)cc(C(=O)OC)c1,2.1,-13,-1.7%,2.1,-3%,9,17%
CC(Sc1nnc(C2CC2)n1C)C(=O)Nc1ccc2c(c1)CCC2 (configuration not stated),.,3,0.2%,-0.2,.,7,-2.2%
COc1ccc2cc3cc(C(=O)Nc4ccccc4N4CCN(C)CC4)oc3nc2c1,-1.2,-1,-8.1%,-0.4,16%,-6,1.6%
CCN(CC)CCNC(=O)C1c2cc(OC)c(OC)cc2C(=O)N2CCc3ccccc3C12 (configuration not stated),0.2,2,-3.9%,-0.1,17%,-1,-0.6%
COc1ccccc1-c1nnc(SCC(=O)Nc2c(Cl)cccc2Cl)o1,5.5,-10,-1.9%,1.0,-1%,8,1.6%
COc1cccc(C(c2nnnn2CCc2ccccc2)N2CCN(c3ccccc3)CC2)c1OC (configuration not stated),3.1,-9,-2.7%,88*,24%,-6,-2.4%
C=C(C)CNC(=S)NNC(=O)c1ccco1,2.0,9,4.2%,0.7,16%,-2,.
CC1=C(C(=O)OC(C)C)C(c2ccc(Br)s2)NC(=O)N1 (configuration not stated),1.5,5,0.6%,-0.1,3%,10,-5.0%[38.3 µM]
NC(=O)COC(=O)c1cc(Cl)cc(Cl)c1N,1.4,-9,.,1.0,7%,6,-1.5%
O=C(NC1CCCCC1)c1ccc(-n2cncn2)c([N+](=O)[O-])c1,.,-14,0.1%,-0.6,.,.,1.2%
CC(=C/c1ccco1)/C=N/N1CCN(c2ccccc2)CC1,6.3,-5,-0.9%,0.7,17%,-10,.
COc1cc2c(cc1N/C=C(\C#N)c1nc(-c3ccc(F)cc3)cs1)oc1ccccc12,1.2,-3,.,-0.3,21%,7,1.6%
Cc1cccc(OCC(=O)Nc2ccc3c(c2)OCO3)c1C,0.3,12,-0.4%,1.7,-20%,4,1.2%
CN(Cc1cccs1)C(=O)CNC(=O)c1ccco1,.,20,1.2%,-0.5,7%,?,0.3%
CC1(C)CC(=O)C=C(Nc2cccc(Cl)c2Cl)C1,.,6,-1.3%,0.3,.,.,-0.8%
Cc1cccc(C)c1OCc1cc(C(=O)N2CCN(c3ccccc3)CC2C)no1 (configuration not stated),.,60,1.2%,1.7,-11%,5,5.1%
COc1ccc(-c2cc(C)nc3nc(N)nn23)cc1,3.1,-15,?,-0.7,10%,-1,1.6%
COc1ccc(OCc2cc(C(=O)NCc3nc(C)cs3)no2)c(Cl)c1,.,-21,14%,1.2,8%,?,1.4%
Nc1nc(Nc2ccccc2)nc(N2CCOCC2)c1[N+](=O)[O-],3.1,-17,16µM*,2.3,-2%,-8,-1.0%
Cc1ccc(S(=O)(=O)N(C)c2ccc3c(ncn3C)c2[N+](=O)[O-])cc1,.,-7,0.0%,-0.2,.,5,-0.4%
CCOc1ccc(Nc2n[nH]c(=S)s2)cc1,-0.6,-8,-3.5%,1.2,-25%,-8,2.8%
O=C(NC1CC2CCC1C2)c1ccc(CN2CCOCC2)cc1 (configuration not stated),3.1,-1,-0.5%,0.0,-5%,-9,1.3%
CC(NC(=O)c1ccccc1)c1nnc(SCc2nc3ccccc3c(=O)[nH]2)n1C (configuration not stated),0.1,6,.,0.0,21%,-1,-1.5%
O=C(CCC(=O)OCCOc1ccccc1)OCCOc1ccccc1,.,.,-1.1%,-0.7,.,.,4.1%
Cc1cc(/C=N\NC(=O)COc2cccc3cccnc23)c(C)n1-c1ccccc1,10,8,-2.6%,0.9,-16%,4,0.7%
CCN(CC)CCCC(C)NC(=O)c1ccc(C(F)(F)F)cc1 (configuration not stated),-0.7,-10,-2.0%,0.3,13%,-3,-1.3%
CCc1nnc(NC(=O)CCn2cnc3ccccc3c2=O)s1,0.3,-4,.,0.6,9%,0,0.9%
CC(C)N1CCN(Cc2cc3ccccc3[nH]2)CC1CCO (configuration not stated),0.6,-8,0.7%,0.0,24%,2,-1.8%
Cc1ccc(S(=O)(=O)CNC(=S)c2cccc(C)c2)cc1,1.3,-14,1.5%,0.0,3%,0,7.2%[38.3 µM]
CC(=O)Nc1ccc(C=NNc2nnc(NN=Cc3ccc(NC(C)=O)cc3)c3ccccc23)cc1,.,-20,-10%,0.4,.,.,7.1%
COCCN1C(=O)c2cc(C(=O)Nc3ccc(OC)c(OC)c3)ccc2C1Nc1ccc(OC)c(OC)c1 (configuration not stated),-1.1,1,.,-0.6,5%,-4,5.6%
COc1ccc(-c2ccc(/C=C(\NC(=O)c3ccccc3)C(=O)N3CCOCC3)o2)cc1,11,65,-0.1%,-0.3,?,-1,0.1%
# Next entries
SMILES,Menin MLL FP FL,TRPML1 blocker,ClpP mod,TRPML1 agonist,Sfp PPTase inh,TRPV1 potentiator,PINK1 expr mod
COc1ccc(-c2cc(C(=O)OCC(=O)NC3CC3)c3ccccc3n2)cc1OC,.,-3,.,0.0,.,.,2.7%
CC(NC(=O)c1ccccc1)C(=O)OCC(=O)Nc1cccc(S(=O)(=O)N2CCCC2)c1 (configuration not stated),.,5,-1.2%,0.6,.,.,3.4%
Cc1c(NC(=O)CSc2nc(N)cc(N)n2)c(=O)n(-c2ccccc2)n1C,.,3,28µM*,0.9,.,3,-1.5%
O=C(NC1CCCN(Cc2ccc(Cl)cc2)C1)c1ccccc1-c1ncc[nH]1 (configuration not stated),1.0,-6,-3.8%,-0.4,0%,-12,-0.3%
CCn1c(NC(C)=O)nc2ccccc21,0.6,2,0.7%,3.2,6%,6,1.9%
O=C(NCc1ccc(Cl)cc1)c1cnc2sc(N3CCCC3)nn2c1=O,.,-6,?,-0.5,.,.,0.1%
CCCN(C(=O)CSc1ncnc2sccc12)c1c(N)n(Cc2ccccc2)c(=O)[nH]c1=O,.,19,-0.7%,0.4,.,-5,-0.4%
COc1ccc(CNC(=O)CCc2c(C)nn(-c3ccc(N4CCCC4)nn3)c2C)cc1,.,6,-1.4%,0.0,.,.,1.0%
Cc1ccc(NC(=O)CNNC(=O)c2cccc([N+](=O)[O-])c2)cc1[N+](=O)[O-],.,-1,.,-1.3,.,.,-0.6%
Nc1nc(CN2CCN(c3ccccn3)CC2)nc(Nc2ccc(Cl)cc2)n1,-1.5,-1,-6.9%,0.7,10%,1,1.6%
CSC1=C(C#N)C(c2ccccc2)C(C(C)=O)=C(C)N1 (configuration not stated),1.7,-1,0.1%,0.8,19%,-1,4.2%
O=C(CSc1ccc2ccccc2n1)c1ccccc1,-1.9,22,.,1.9,-20%,3,1.1%
Nc1c(S(=O)(=O)c2ccccc2)c2nc3ccccc3nc2n1/N=C/c1cccc(O)c1,-0.4,4,10µM*,0.2,10%,2,1.5%
CCOC(=O)c1ccc(CN(Cc2ccc(C)cc2)S(=O)(=O)c2ccc(NC(C)=O)cc2)cc1,.,0,-1.4%,2.4,.,.,-0.9%
COc1ccccc1C(=O)Nn1cnnc1,0.2,-19,-0.8%,0.7,7%,9,-0.7%
COc1ccccc1-c1cccc([C@@H]2C[C@H]3[C@H](CON3C)CN2C(C)=O)c1,.,-20,-3.7%,1.0,.,.,0.2%
CCN1CCCC1CNCc1ccc(OCc2ccc(Cl)nc2)c(OC)c1 (configuration not stated),-5.0,-2,.,0.8,0%,15,2.5%
